Insulin prom inh – inhibitors of insulin promoter-driven GFP, primary screen, imaging, TRM-6 cells (human fetal islet line), eGFP reporter, cell count; reporter expression induced with tamoxifen; inhibition, % at 2 µM; 130,000 compounds, 0.9% hits;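 active = inhibition above the mean plus 3 SD, with well images judged a real hit on visual review, cut at about 60% in these data, passing the limit was not always enough; inconclusive = inhibition over the cutoff but images rejected on review; inactive = inhibition not above the cutoff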
RGS16-Gao – modulators of RGS16 binding to Galphao, primary screen, biochemical, human proteins, multiplexed bead flow cytometry. Regulator of G-protein signaling 16 (Homo sapiens) + Guanine nucleotide-binding protein …. bead-based flow cytometry RGS16-Galphao binding, fluorescence; actives lie on both sides. binding response (% of control), % at 10 µM. 220,000 compounds, 0.38% hits;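 active = below 25% or above 175%, edge rows of some plates excepted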;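 note: Galphao activated by GDP with aluminum fluoride before binding; 100% = wells without compound and 0% = beads without RGS; some results beyond the cut were filed as inactive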
HSV replic up – enhancers of HSV replication in host cells, fold increase, host cell viability | maximum fold increase | 220,000 compounds, 0.005% hits | HSV replication augmentation in cells;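 active = peak rise of 1.5-fold or more in the series; inconclusive = self-fluorescent or not available for retest; tested in PC3 cells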;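 note: first round at 10 µM; read as green reporter fluorescence; hits show the peak of a series up to 25 µM; 1 = signal of infected wells without compound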
PKD1 kinase inh – inhibitors of human PKD1 kinase, biochemical, fluorescence polarization; Serine/threonine-protein kinase D1 (Homo sapiens), Q15139; PKD1 kinase fluorescence polarization assay; inhibition, %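 (about 10 µM by stock and volumes)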; 200,000 compounds, 0.056% hits;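 active = inhibition of 50% or more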;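 note: controls were vehicle for no effect and a reference inhibitor for full effect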
Target sequence (Q15139 whole entry, looked up): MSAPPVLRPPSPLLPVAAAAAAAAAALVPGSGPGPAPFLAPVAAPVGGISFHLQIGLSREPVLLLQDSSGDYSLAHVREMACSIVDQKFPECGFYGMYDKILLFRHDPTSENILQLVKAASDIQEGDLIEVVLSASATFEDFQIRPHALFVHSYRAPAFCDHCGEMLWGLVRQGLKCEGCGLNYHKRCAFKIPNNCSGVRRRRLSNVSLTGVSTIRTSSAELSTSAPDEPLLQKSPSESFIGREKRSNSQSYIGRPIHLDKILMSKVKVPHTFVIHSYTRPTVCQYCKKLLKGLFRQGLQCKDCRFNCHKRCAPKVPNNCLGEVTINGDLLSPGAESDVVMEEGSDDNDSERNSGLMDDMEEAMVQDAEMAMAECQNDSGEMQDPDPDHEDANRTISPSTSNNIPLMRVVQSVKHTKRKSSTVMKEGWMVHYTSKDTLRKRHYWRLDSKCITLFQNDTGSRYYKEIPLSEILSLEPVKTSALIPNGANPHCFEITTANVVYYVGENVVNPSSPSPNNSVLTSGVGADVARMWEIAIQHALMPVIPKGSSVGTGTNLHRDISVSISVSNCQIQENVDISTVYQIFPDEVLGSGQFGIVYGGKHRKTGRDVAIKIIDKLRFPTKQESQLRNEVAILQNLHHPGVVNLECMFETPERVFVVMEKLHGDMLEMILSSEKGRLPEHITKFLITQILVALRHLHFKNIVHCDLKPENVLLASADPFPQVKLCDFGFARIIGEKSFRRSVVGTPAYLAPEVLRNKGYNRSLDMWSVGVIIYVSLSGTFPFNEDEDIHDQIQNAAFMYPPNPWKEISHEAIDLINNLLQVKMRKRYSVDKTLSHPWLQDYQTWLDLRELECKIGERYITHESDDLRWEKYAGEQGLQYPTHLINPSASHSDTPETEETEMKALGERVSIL
GALR2 agonist – GALR2 receptor agonists, primary screen, cell-based; activation, %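 (tested at 5 µM)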; GALR2-expressing cells, agonist activation read-out; Galanin receptor type 2 (Homo sapiens), O43603; AID 803, 2007; 140,000 compounds, 0.48% hits;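 active = above mean plus 3 SD of all compounds, about 5% in these data, not always enough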;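 note: 0% = vehicle buffer wells and 100% = reference agonist at full effect; tested in CHO reporter cells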
Insulin prom inh cell count – second read-out of Insulin prom inh, no call of its own (marks repeat the call); normalized cell count, %; measured here: cell count, toxicity; reference of the scale not given here;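 cells exposed to compound for 48 h; stained nuclei by imaging scaled within each plate; lower means fewer cells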
HSV replic up primary fold – recorded beside HSV replic up, whose call it bears; fold increase; compound at 10 µM; measured here: primary screen fold increase 10 uM; tested in PC3 cells;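 GFP signal in the first replicate; 1 = infected wells without compound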
Numbers without * were called inactive; i = inactive; ? = inconclusive; nt = not tested or not shown; & = joins results of further samples.

SMILES	Insulin prom inh	PKD1 kinase inh	GALR2 agonist	RGS16-Gao	HSV replic up	Insulin prom inh cell count	HSV replic up primary fold
NS(=O)(=O)c1cccc(NC(=O)CSc2nn(-c3ccccc3)c(=S)s2)c1	nt	2	-0.7	104	i	nt	0.81
COc1cc(NC(=S)NCc2ccc(S(N)(=O)=O)cc2)c(OC)cc1Cl	-9	-7	-0.4	98	i	150	1.1
CCS(=O)(=O)n1nc(-c2ccc(Cl)cc2)nc1N	nt	-7	-0.7	103	i	nt	0.89
Cn1c(=O)c2cc(S(=O)(=O)Nc3cccc(F)c3)ccc2n(C)c1=O	48	5	-0.8	94	nt	89	nt
O=C(NCc1ccco1)C1CCN(c2nnc(-n3cccc3)s2)CC1	20	2	-1.2	101	i	127	1.1
COc1ccc(NC(=O)c2cc(-c3cccs3)on2)cc1OC	nt	0	-4.0	101	i	nt	1.1
c1ccc2c(-n3cnnn3)cccc2c1	3	-4	-1.5	116	i	86	0.93
O=C1CC2c3ccccc3C1C1C(=O)N(Cc3ccccc3)C(=O)C21 (stereo unspecified)	nt	3	nt	99	i	nt	0.93
COc1ccc(CC(=O)NCc2nnc(SCCOc3ccccc3)n2C)cc1	-5	-2	-1.0	93	i	125	1
CCn1c(COc2ccc3c(c2)OCO3)nnc1SCC(=O)c1ccccc1	11	4	-2.5	81	i	130	0.98
S=c1[nH]nc(C2CCCCC2)n1/N=C/C=C/c1ccccc1	-17	-4	-0.5	98	nt	103	nt
COC(=O)N/N=C(\C)c1ccc(-n2ccnc2)cc1	-27	-6	nt	104	i	116	0.99
C=CCNC(=O)c1cccn1-c1ccsc1C(=O)OC	-22	-7	-1.0	87	i	145	0.97
CCCCCCCCCCCCCCCC[n+]1cccc2ccccc21	nt	2	-2.2	100	i	nt	0.88
CCOC(=O)c1ccc(NC(=S)NCCC2=CCCCC2)cc1	nt	-13	-1.9	72	i	nt	0.8
Cc1c(NC(=O)c2ccc(S(=O)(=O)N3CC(C)OC(C)C3)cc2)c(=O)n(-c2ccccc2)n1C (stereo unspecified)	21	-2	nt	99	i	90	1
O=[N+]([O-])c1cccnc1N1CCN(c2ccc(F)cc2)CC1	39	-6	nt	108	i	104	1
Cc1cc(C(=O)N/N=C/c2cc(Br)cc(Br)c2OC(=O)c2cccc(F)c2)n[nH]1	nt	-2	nt	101	i	nt	0.98
Cc1cc(CSc2ccccc2)ccc1NC(=O)c1ccc(CN2CCOCC2)cc1	50	-4	-0.8	123	i	71	0.86
O=C(Nc1ccccc1)c1cc2ccccc2o1	-71	2	-1.4	105	i	123	0.76
COCCNC(=S)c1ccc(Br)cc1	nt	-3	nt	94	i	nt	0.98
COc1ccc(Cn2c(=O)[nH]c3cc(C(=O)NCCCN4CCCCC4)ccc3c2=O)cc1	nt	-4	-2.9	103	i	nt	0.94
Cc1ccc(NC(=S)Nc2c(C)n(C)n(-c3ccccc3)c2=O)cc1Cl	nt	-7	nt	101	i	nt	0.99
CS(=O)(=O)N(Cc1ccc(Cl)cc1)c1ccc(C(=O)NCCSCc2ccco2)cc1	-27	-11	0.1	98	i	94	0.78
COc1ccc(C(=O)N2CC3(C)C4CCC3(C)C2(C#N)C4)cc1OC (stereo unspecified)	-76	0	nt	102	i	94	0.99
CCc1nnc(NC(=O)CSc2nccn2-c2cc(C)cc(C)c2)s1	nt	-9	-2.5	103	i	nt	0.67
Cc1ccc(NC(=O)CN2CCCN(S(=O)(=O)c3ccc(Br)s3)CC2)cc1	4	-5	8.5	100	i	125	1.1
Cc1ccc(S(=O)(=O)Nc2ccc3oc(=O)sc3c2)c(C)c1	26	-11	-3.0	142	i	112	0.86
O=C(O)C1CCCCC1C(=O)Nc1cccc(C(=O)N2CCCCC2)c1 (stereo unspecified)	-117	0	-1.3	98	i	78	0.9
CCc1c(C)nc(SCC(=O)Nc2cccc(Br)c2)[nH]c1=O	22	-7	0.4	103	i	128	0.88
O=[N+]([O-])c1ccccc1NCc1ccccc1Cl	nt	-3	nt	102	i	nt	1.1
COc1cc(SC)ccc1C(=O)NCCOc1ccccc1Cl	-14	10	-1.6	103	i	152	0.99
O=[N+]([O-])c1ccc(-c2n(-c3ccccn3)c3ccccc3[n+]2-c2ccccn2)cc1	nt	nt	nt	107	i	nt	1
N#CC(C(=O)NCc1ccccc1)c1nc2ccccc2nc1N1CCCC1 (stereo unspecified)	14	3	-1.2	88	i	42	1.1
COc1ccc(CCN=C(N)C(C)c2ccccc2)cc1OC (stereo unspecified)	nt	nt	nt	99	i	nt	0.99
CC(C)OP(=O)(c1ccc(N(C)C)cc1)C(O)c1ccncc1 (stereo unspecified)	8	7	-1.5	98	i	134	1
CC(C)c1nc(C(=O)N2CCCC(CCC(=O)N(C)CCc3ccccn3)C2)cs1 (stereo unspecified)	-170	3	nt	95	i	22	0.93
COc1ccc(CCNC(=O)CCn2c(SCC(=O)N3CCCC3)nc3ccccc3c2=O)cc1OC	nt	nt	nt	101	i	nt	0.9
CN1CCN(CC(=O)Nc2ccccc2[N+](=O)[O-])CC1	nt	-6	-0.9	105	i	nt	0.89
Cn1c(=O)c(C(=O)c2ccccc2)nc2ccccc21	-6	-7	-1.9	108	i	83	0.97
Cc1cc(=O)[nH]c(SCC(=O)N2c3ccccc3CC2C)n1 (stereo unspecified)	-64	-10	-0.5	110	i	151	0.94
O=C1CCC(C(=O)NCCCn2ccnc2)N1 (stereo unspecified)	-14	6	-1.4	99	i	116	0.86
CCOc1ccc(CCNC(=O)C2CCN(c3nn4c(=O)cc(C)nc4s3)CC2)cc1OCC	8	-14	-1.1	94	i	104	0.98
CC1(c2ccccc2)CC(C)(C)N2C(=O)Cc3cccc1c32 (stereo unspecified)	18	5	nt	127	i	132	0.94
CC(C)CNC(=O)COc1ccc(Sc2ccc(OCC(=O)NCC(C)C)cc2)cc1	-16	-6	-1.8	118	i	70	1
CC12CCC(C(=O)O)(C/C1=N\O)C2(C)C (stereo unspecified)	13	-1&-10	-2.4&-0.3	105&101	i	83	0.85&1
COC(=O)C1=CN(C2CCCCC2)C=C(C(=O)OC)C1c1ccc2c(c1)OCO2	nt	2	nt	99	i	nt	0.94
O=C(CSc1ncnc2scc(-c3ccccc3)c12)NC1CCS(=O)(=O)C1 (stereo unspecified)	nt	nt	nt	104	i	nt	0.94
COc1ccc(S(=O)(=O)Nc2cc3c4c(oc3c3ccccc23)CCCC4=O)cc1	43	-4	-0.5	102	i	55	1.1
O=C(CCc1n[nH]c(=O)[nH]c1=O)Nc1cccc([N+](=O)[O-])c1	55	-4	nt	101	i	80	1.2
CCOC(=O)Cc1csc(SCC(=O)Nc2sc3c(c2C(N)=O)CCC3)n1	-13	-4	-1.6	101	i	134	1.1
Cc1nn(Cc2ccc(Cl)cc2)c(Cl)c1/C=N/NC(=O)CNc1ccccc1F	nt	10	3.7	86	i	nt	0.99
Cc1csc2nc(CSc3nncn3-c3ccccc3)c(Br)n12	nt	6	2.1	101	i	nt	1.1
O=C(O)CCCCNS(=O)(=O)c1ccc(Cl)c(C(F)(F)F)c1	nt	-1	-2.4	103	i	nt	0.92
COC(=O)CCC(=O)NNC(=O)Cc1ccccc1	-29	-3	nt	91	i	98	1.1
COc1ccc(/C=C/CN2CCCC(CO)(Cc3cccc(Cl)c3)C2)cc1 (stereo unspecified)	nt	1	nt	100	i	nt	0.85
Cn1c(Cc2csc(N)n2)nnc1SCC(=O)NCc1ccccc1	50	8	-2.1	107	i	129	0.88
COc1ccc(C2NC(=O)C(C#N)=C(S)N2c2ccc(C)cc2)cc1OC (stereo unspecified)	0	-3	nt	77	i	75	1
Cc1cc(S(=O)(=O)NCC(c2ccccc2)c2ccccc2)ccc1-n1cnnn1	-17	-5	-0.3	104	i	110	0.94
CC(=O)NNC(=O)CCn1c2c(c3ccccc31)CCCC2	nt	nt	nt	92	i	nt	0.87

2 successive compounds already listed:
SMILES	Insulin prom inh	PKD1 kinase inh	GALR2 agonist	RGS16-Gao	HSV replic up	Insulin prom inh cell count	HSV replic up primary fold
Cc1cc(=O)[nH]c(SCC(=O)N2c3ccccc3CC2C)n1 (stereo unspecified)	-64	-10	-0.5	110	i	151	0.94
O=C1CCC(C(=O)NCCCn2ccnc2)N1 (stereo unspecified)	-14	6	-1.4	99	i	116	0.86

Continued:
SMILES	Insulin prom inh	PKD1 kinase inh	GALR2 agonist	RGS16-Gao	HSV replic up	Insulin prom inh cell count	HSV replic up primary fold
COc1ccc(NC(=O)c2cnc3n(c2=O)CCS3)cc1OC	0	5	1.1	104	i	90	0.69
CCC1CCc2sc(C(=O)O)cc2C1 (stereo unspecified)	15	-10	-1.4	101	i	86	1
Cc1cc(C)c2c(N)c(C(=O)C(C)(C)C)sc2n1	nt	1	nt	97	i	nt	0.93
COc1ccc(Oc2nccc(-c3ccc(Cl)cc3)n2)cc1	-41	-3	-1.0	100	i	102	0.98
COc1cccc(C2c3[nH]c4ccccc4c3CCN2C(=O)Cn2cncn2)c1OC (stereo unspecified)	2	-4	nt	101	i	93	1
CNc1nc(Nc2ccc(C)c(Cl)c2)nc(N)c1[N+](=O)[O-]	nt	-4	4.8	100	i	nt	0.88
Cc1ccc(C(=O)OC2=CC(=O)CC(C)(C)C2)cc1	47	-1	-1.3	105	i	131	1
CCCCC(=O)NCc1ccc(Cl)cc1	-9	-3	-1.5	76	i	111	1
CC(=O)c1c(C(C)=O)c(C)n(-c2ccc(O)cc2)c1C	8	-2	-1.4	101	i	108	0.92
Cc1nn(C)c(C(=O)N2CCc3ccccc32)c1Br	21	-5	-0.3	103	i	103	1.1
O=C(Nc1ccccc1O)c1ccc(NS(=O)(=O)c2cccc3cccnc23)cc1	nt	3	nt	101	nt	nt	nt
CCOC(=O)c1c(-c2ccc(C)o2)csc1NC(=O)COC(=O)c1cccs1	35	1	0.8	101	i	59	1
CC(C)(C)C(=O)N=C1SC2CS(=O)(=O)CC2N1c1ccc2c(c1)OCO2 (stereo unspecified)	30	-1	-0.9	99	?	125	nt
O=C(c1ccc(F)cc1)N1CCC(n2nnc3ccccc32)CC1	50	5	nt	106	i	96	0.88
Cc1nnc(SCC(=O)N2CCc3ccccc32)n1-c1ccccc1	-150	-19	-1.1	100	i	143	0.93
C/C(=N\NC(=O)c1ccc(CSc2nc(C)cc(C)n2)cc1)C1CCCCC1	-13	-9	0.8	74	i	79	0.92
O=C(NCc1ccccc1)C1CC(=O)N(C2CCCCCC2)C1 (stereo unspecified)	-73	-4	nt	85	i	75	0.89
COC(=O)Cn1cnc2c(C#N)c3n(c2c1=O)CCCC3	nt	5	-0.6	108	i	nt	0.92
CN(CC(=O)Nc1ccc(C#N)cc1)Cc1ccc(Cl)c(Cl)c1	-12	0	-2.1	98	i	130	1
COc1ccc(NC(=O)C(=S)N2CCCC2)cc1	nt	0	nt	103	i	nt	0.6
COc1ccc2[nH]c(=O)c(NC(N)=S)nc2c1	-48	-6	-0.8	84	i	116	0.95
COn1c(C)c(C(C)=O)c2c3no[n+]([O-])c3ccc21	-7	-2	-0.7	95	i	69	0.98
CSc1nnc(-c2cc(C)on2)n1-c1ccccc1	-8	0	1.7	35	i	81	0.99
COCCCN1C(=O)c2ccccc2C1C(=O)NC1CCCCCC1 (stereo unspecified)	-72	-7	-2.6	100	i	59	0.87
CC1CC(C)CN(C(=O)CSc2nc(Cc3cccs3)nc3ccccc23)C1 (stereo unspecified)	nt	-1	-1.2	104	i	nt	0.51
O=C(COC(=O)COc1cccc(F)c1)NCCC1=CCCCC1	nt	-2	nt	104	i	nt	1.1
CCCOC(=O)c1ccc(NC(=O)C(=O)NCC2CCCO2)cc1 (stereo unspecified)	-3	-1	1.1	117	i	119	0.98
C=CCOc1ccc(/C(O)=C2\C(=O)C(=O)N(CCCOC)C2c2ccncc2)cc1 (stereo unspecified)	2	-3	0.1	90	nt	54	nt
